# Screening data deposited in PubChem by ICCB-Longwood Screening Facility, Harvard Medical School.
# Mtb MbtI inh: MbtI salicylate synthase inhibition | P9WFX0 | purified MbtI enzyme, fluorescence intensity read-out | AID 493033 | actives 0.89% (n = 100,000) | inhibition, %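 (about 17 µg/mL by stock and volumes)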;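 active = above 50% in both replicates, above 80% if mildly self-fluorescent; inactive = the rest, strongly fluorescent compounds included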;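 note: 0% = mean of negative and 100% = mean of positive controls; one replicate is shown; some compounds called inactive have numbers as strong as hits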
# PV pol inh: inhibitors of poliovirus RNA polymerase binding and polymerization. poliovirus polymerase elongation, fluorescence polarization; active compounds read low. % elongation, % (compound at 16.7 µg/mL). actives 0.66% (n = 150,000). AID 588519; in the data active = % elongation below about 90%; note: some results filed as inactive read as strong as hits
# Target sequence (P03300 1749-2209 limits assumed): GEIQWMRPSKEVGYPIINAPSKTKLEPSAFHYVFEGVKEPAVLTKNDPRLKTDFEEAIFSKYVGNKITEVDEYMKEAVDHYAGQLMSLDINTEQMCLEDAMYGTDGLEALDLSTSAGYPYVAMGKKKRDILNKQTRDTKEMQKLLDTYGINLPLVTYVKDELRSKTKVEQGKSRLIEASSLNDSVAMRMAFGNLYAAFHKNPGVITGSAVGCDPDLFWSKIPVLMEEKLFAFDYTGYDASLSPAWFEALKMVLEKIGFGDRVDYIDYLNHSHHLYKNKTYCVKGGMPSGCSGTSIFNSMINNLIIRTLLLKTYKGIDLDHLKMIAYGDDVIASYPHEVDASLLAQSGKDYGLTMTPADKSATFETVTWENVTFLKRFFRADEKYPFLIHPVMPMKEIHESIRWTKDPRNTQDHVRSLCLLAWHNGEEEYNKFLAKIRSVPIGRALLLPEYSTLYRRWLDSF
# Mtb MenB inh: inhibitors of Mycobacterium tuberculosis MenB enzyme | actives 0.43% (n = 100,000) | MenB enzyme assay, absorbance read-out; some hits fall short of the stated cut | P9WNP5 | inhibition, %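 (about 12 µg/mL by stock and volumes)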;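 active = mean of two replicates above 30%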;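 note: 0% = no compound and 100% = wells with inactive enzyme; the first replicate is given; strong numbers were not always called active; inactives centre near -10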
# Target sequence (P9WNP5 whole entry, looked up): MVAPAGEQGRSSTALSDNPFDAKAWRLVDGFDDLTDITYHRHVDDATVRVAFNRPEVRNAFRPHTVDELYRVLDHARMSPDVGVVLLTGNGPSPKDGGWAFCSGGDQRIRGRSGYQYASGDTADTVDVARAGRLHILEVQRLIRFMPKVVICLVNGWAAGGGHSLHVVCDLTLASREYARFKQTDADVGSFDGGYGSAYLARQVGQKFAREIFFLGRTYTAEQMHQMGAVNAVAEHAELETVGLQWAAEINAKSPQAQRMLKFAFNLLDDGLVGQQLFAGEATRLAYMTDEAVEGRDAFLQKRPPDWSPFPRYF
# PV pol inh intensity: also measured in PV pol inh; calls as there; % elongation; measured here: total intensity read-out; formula for this scale not given here;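 total fluorescence in place of polarization; lower means less elongation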
# * marks the source's active call; other numbers are inactive results; x = no result given.
no. | SMILES | Mtb MbtI inh | PV pol inh
1 | CC(C)(C)NC(=O)CSc1ccc(Cl)cc1 | x | 99.0
2 | CC(C(=O)OCC(=O)c1ccccc1)N1C(=O)C2C3C=CC(C3)C2C1=O (configuration not stated) | -7.3 | 104.0
3 | O=C(COC(=O)c1ccc[nH]c1=O)NCC12CC3CC(CC(C3)C1)C2 | -15.0 | 104.0
4 | COc1ccccc1NC(=O)COC(=O)c1ccccc1Br | -6.8 | 103.0
5 | O=C(CCSCc1ccccc1F)NCc1cccnc1 | -24.6 | 99.0
6 | O=c1[nH]cc(COCc2ccccc2)c(=O)[nH]1 | x | 104.0
7 | CNC(=O)/C(=C\c1ccc(OC)cc1)NC(=O)c1ccccc1 | 13.7 | 100.0
8 | FC(F)(F)c1cccc(N2CCNC2=S)c1 | -23.2 | 92.0
9 | O=C1c2ccccc2N(Cc2ccc(Cl)cc2)C2=NCCN12 | 147.2 | 105.0
10 | Cc1nc2ccc(Br)cn2c1NC(C)(C)C | 2.8 | 100.0
11 | Fc1ccc2c(c1)CN(c1ccccc1F)CO2 | 0.6 | 102.0
12 | Cc1c(C(=O)NCCN(C)C)oc2ccc(S(=O)(=O)N3CCCC3)cc12 | -7.8 | 102.0
13 | CCCOc1ccc2cc(S(=O)(=O)N3CCCC3)ccc2c1 | 40.6 | 105.0
14 | Cc1cc(C(=O)CSc2nnc(N)s2)c(C)n1CCc1ccc(Cl)cc1 | -12.1 | 103.0
15 | COc1ccc(NC(=O)CN2CCC(C)CC2)cc1 | -20.2 | 101.0

no. | PV pol inh intensity | Mtb MenB inh
1 | 106.0 | -0.3
2 | 100.0 | -8.1
3 | 115.0 | -14.3
4 | 108.0 | x
5 | 100.0 | -6.9
6 | 110.0 | -2.8
7 | 96.0 | x
8 | 126.0 | -5.4
9 | 101.0 | -33.9
10 | 100.0 | -56.9
11 | 106.0 | 0.0
12 | 102.0 | -10.6
13 | 101.0 | -6.0
14 | 109.0 | -24.4
15 | 102.0 | 7.1

# Remaining list, next part.
no. | SMILES | Mtb MbtI inh | PV pol inh
16 | COc1ccccc1-n1cnnc1SCc1cccc(Cl)c1 | -4.9 | 99.0
17 | CCCn1c(NCCCN(CC)CC)nc2ccccc21 | -1.6 | 100.0
18 | Cc1cccc(C)c1OC(=O)Cc1ccccc1 | -1.3 | 104.0
19 | NC(=S)c1sccc1CS(=O)c1ccc(Cl)cc1 (configuration not stated) | 58.6* | 107.0
20 | Nc1ccccc1SCC(=O)N1CCc2ccccc21 | x | 101.0
21 | COc1ccc(C(=O)NCCC(C)C)cc1 | -10.1 | 98.0
22 | CCN1CCN(CC(c2ccccc2)c2ccccc2)CC1 | -4.8 | 102.0
23 | COc1cc(Cl)cc(/C=N/n2c(-c3ccc(C)cc3)n[nH]c2=S)c1O | 34.8 | 97.0
24 | CC12CCC(C(=O)N(CC#N)CC#N)(OC1=O)C2(C)C (configuration not stated) | -13.7 | 101.0
25 | CCOc1cc(C#N)ccc1OCC(=O)N1c2ccccc2NC(=O)CC1C (configuration not stated) | -3.5 | 101.0
26 | CCCc1nc(=S)[nH][nH]1 | 69.3 | 101.0
27 | O=C(O)COc1ccc(C2SCCCS2)cc1 | -8.1 | x
28 | COc1ccccc1CNC(=O)Cn1cccc1 | -8.9 | 102.0
29 | Cc1cc(NC(=O)Nc2scc(S(=O)(=O)c3ccc(Cl)cc3)c2C)on1 | 13.9 | 105.0
30 | CC(C)(C)CC(=O)NCc1nc(-c2ccccc2)no1 | -0.9 | 104.0

no. | PV pol inh intensity | Mtb MenB inh
16 | 100.0 | 9.0
17 | 102.0 | -21.0
18 | 105.0 | -17.8
19 | 116.0 | 1.6
20 | 88.0 | -17.8
21 | 96.0 | x
22 | 104.0 | -2.7
23 | 103.0 | -57.7
24 | 103.0 | -36.8
25 | 101.0 | -24.6
26 | 104.0 | -9.8
27 | x | 5.4
28 | 110.0 | -3.7
29 | 102.0 | -13.9
30 | 102.0 | -13.9

# Following part
no. | SMILES | Mtb MbtI inh | PV pol inh
31 | NNC(=S)Nc1ccccc1Cl | 1.6 | 107.0
32 | Cc1noc(C)c1COc1ccc2c(C)cc(=O)oc2c1 | 79.7 | 102.0
33 | CC(C)(C)C(=O)CSc1nnc(Cc2ccccc2F)n1N | -1.7 | 106.0
34 | CS(=O)(=O)N1CCCc2cc(C(=O)CSc3nnc(CN4CCCC4=O)o3)ccc21 | 14.1 | 108.0
35 | CC1=NN(c2ccc(Cl)cc2)C(=O)C1CCOC(=O)c1nn(-c2ccccc2)nc1C (configuration not stated) | 8.8 | 101.0
36 | O=C(O)c1ccc(C(=O)c2cc(C(=O)O)ccc2C(=O)O)cc1 | 3.5 | 98.0
37 | N#Cc1ccc(-c2ccc(OCC3CNC(=O)O3)cc2)cc1 (configuration not stated) | 89.1 | 101.0
38 | CCC(=O)Nc1ccccc1C(=O)NCC1CCCO1 (configuration not stated) | 5.5 | 104.0
39 | O=C(CCCSc1nc(-c2ccco2)cc(C(F)(F)F)n1)Nn1cnnc1 | -10.2 | 103.0
40 | COc1ccc(C)cc1-n1nnnc1Sc1nnnn1-c1ccccc1 | 9.6 | 105.0
41 | COC(=O)CNC(=O)c1n[nH]c(=O)c2ccccc12 | 5.2 | 102.0
42 | COc1ccc(C(=O)N(c2ccccc2)C2C=CS(=O)(=O)C2)cc1 (configuration not stated) | -4.0 | 101.0
43 | CCOc1ccc(NC(=O)c2ccc3c(c2)N(Cc2ccc(C)cc2)CCS3)cc1 | 15.9 | 103.0
44 | CC(Sc1nnc(CNc2cccc(Cl)c2)n1CCc1ccccc1)C(=O)O (configuration not stated) | 6.6 | 102.0
45 | CC1=CCC2C(=O)N(c3cccc(C(F)(F)F)c3)C(=O)C2C1 (configuration not stated) | -2.1 | 101.0

no. | PV pol inh intensity | Mtb MenB inh
31 | 122.0 | -43.1
32 | 103.0 | -12.2
33 | 106.0 | -16.8
34 | 106.0 | -24.7
35 | 101.0 | 3.8
36 | 96.0 | -6.0
37 | 104.0 | -74.5
38 | 99.0 | -60.5
39 | 102.0 | 16.6
40 | 109.0 | 7.7
41 | 105.0 | -8.1
42 | 98.0 | -4.0
43 | 106.0 | -10.8
44 | 101.0 | -49.5
45 | 107.0 | -21.3

# Ordered by molar mass (smallest number first): part of the list above
no. | SMILES | Mtb MbtI inh | PV pol inh
31 | NNC(=S)Nc1ccccc1Cl | 1.6 | 107.0
28 | COc1ccccc1CNC(=O)Cn1cccc1 | -8.9 | 102.0
27 | O=C(O)COc1ccc(C2SCCCS2)cc1 | -8.1 | x
30 | CC(C)(C)CC(=O)NCc1nc(-c2ccccc2)no1 | -0.9 | 104.0
38 | CCC(=O)Nc1ccccc1C(=O)NCC1CCCO1 (configuration not stated) | 5.5 | 104.0
32 | Cc1noc(C)c1COc1ccc2c(C)cc(=O)oc2c1 | 79.7 | 102.0
45 | CC1=CCC2C(=O)N(c3cccc(C(F)(F)F)c3)C(=O)C2C1 (configuration not stated) | -2.1 | 101.0
36 | O=C(O)c1ccc(C(=O)c2cc(C(=O)O)ccc2C(=O)O)cc1 | 3.5 | 98.0
33 | CC(C)(C)C(=O)CSc1nnc(Cc2ccccc2F)n1N | -1.7 | 106.0
42 | COc1ccc(C(=O)N(c2ccccc2)C2C=CS(=O)(=O)C2)cc1 (configuration not stated) | -4.0 | 101.0
40 | COc1ccc(C)cc1-n1nnnc1Sc1nnnn1-c1ccccc1 | 9.6 | 105.0
39 | O=C(CCCSc1nc(-c2ccco2)cc(C(F)(F)F)n1)Nn1cnnc1 | -10.2 | 103.0
29 | Cc1cc(NC(=O)Nc2scc(S(=O)(=O)c3ccc(Cl)cc3)c2C)on1 | 13.9 | 105.0
44 | CC(Sc1nnc(CNc2cccc(Cl)c2)n1CCc1ccccc1)C(=O)O (configuration not stated) | 6.6 | 102.0
35 | CC1=NN(c2ccc(Cl)cc2)C(=O)C1CCOC(=O)c1nn(-c2ccccc2)nc1C (configuration not stated) | 8.8 | 101.0
34 | CS(=O)(=O)N1CCCc2cc(C(=O)CSc3nnc(CN4CCCC4=O)o3)ccc21 | 14.1 | 108.0

no. | PV pol inh intensity | Mtb MenB inh
31 | 122.0 | -43.1
28 | 110.0 | -3.7
27 | x | 5.4
30 | 102.0 | -13.9
38 | 99.0 | -60.5
32 | 103.0 | -12.2
45 | 107.0 | -21.3
36 | 96.0 | -6.0
33 | 106.0 | -16.8
42 | 98.0 | -4.0
40 | 109.0 | 7.7
39 | 102.0 | 16.6
29 | 102.0 | -13.9
44 | 101.0 | -49.5
35 | 101.0 | 3.8
34 | 106.0 | -24.7

# The list continues.
no. | SMILES | Mtb MbtI inh | PV pol inh
46 | CC1Cc2ccccc2N1S(=O)(=O)c1cccc(C(=O)NCc2ccco2)c1 (configuration not stated) | -7.0 | 104.0
47 | COc1ccc(N2CCN(C(c3cccs3)C(C)NC(=O)c3ccccc3OC)CC2)cc1 (configuration not stated) | -3.7 | 102.0
48 | Cc1cc(C)nc(SCC(=O)c2ccc(O)cc2O)n1 | 6.9 | 104.0
49 | O=C(Cn1cnc2c(nnn2Cc2ccc(Cl)cc2)c1=O)N1CCCc2ccccc21 | 8.6 | 101.0
50 | N#Cc1nc2ccccc2[nH]1 | 23.9 | 104.0
51 | O=C(Nc1cccc(CO)c1)C(F)(F)F | 4.3 | 105.0
52 | C=C(C)CSc1nc2c(C)cccc2[nH]1 | -11.3 | 102.0
53 | CCn1c(O)c(C=NCc2cccs2)c(=O)n(CC)c1=S | -8.1 | 98.0

no. | PV pol inh intensity | Mtb MenB inh
46 | 102.0 | -40.0
47 | 98.0 | -26.3
48 | 102.0 | -24.5
49 | 107.0 | 0.6
50 | 97.0 | -38.1
51 | 101.0 | 12.2
52 | 104.0 | -16.2
53 | 102.0 | -6.3
